Screening data: PubChem, Broad Institute
PD-1 reverse act: activators reversing PD-1 mediated T-cell inhibition. primary human CD4 T cells, PD-L1 beads, CellTiter-Glo 96 h. 29,000 tested, under 10 active. activation, % (concentration not given with the values). AID 2316;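 active means replicate mean of 50% or more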;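 further: 0% = median vehicle wells and 100% = positive control; 100 nL library stock added to about 50 µL; numbers are from one replicate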
MITF inh: blocks MITF activity; TRPM1 promoter luciferase, luminescence, 24 h; inhibition, % (concentration not given with the values); 0.28% of 37,000 active;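 active means most replicates at 85% or more, or half of them and the mean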;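 further: human melanocyte line stably carrying TRPM1 promoter luciferase reporter; 0% = vehicle wells and 100% = a positive control; the first replicate is given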
YB-1 expression: YB-1 expression inhibition; U2OS, qRT-PCR YB-1 vs CDIP delta delta Cp, 16 h; active compounds read high; zero = DMSO, each unit about twofold; delta delta Cp (YB-1 minus CDIP) (no concentration beside the values); 0.37% of 30,000 active; AID 434959;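 active means delta delta Cp rounded down to an integer at or above 3, about 3 SD of DMSO wells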;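 further: higher means less YB-1 transcript or more CDIP transcript relative to DMSO; stock transfer was 100 nL into about 100 µL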
Shh pathway inh: blocks Sonic Hedgehog signaling; Shh-LIGHT2 Gli-luciferase reporter, 30 h; inhibition, % (test concentration not listed); 2.1% of 22,000 active; AID 2313;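 active means replicate mean of 65% or more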;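 further: pathway switched on by Shh-conditioned medium diluted 1 in 25 in low serum; 100 nL library stock added to about 40 µL; 0% = median of neutral wells and 100% = positive control level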
Starred values were filed as active, the others as inactive; . = not tested or not shown.

mol | PD-1 reverse act | MITF inh | YB-1 expression | Shh pathway inh
C[C@@H]1CCCCO[C@@H](CN(C)Cc2ccc3c(c2)OCO3)[C@@H](C)CN([C@H](C)CO)C(=O)c2cc(NC(=O)Nc3ccc(F)cc3)ccc2O1 | 1.0 | 14 | 0.36 | .
O=C(CC1(O)C(=O)N(Cc2ccccc2)c2ccccc21)c1cc2ccccc2oc1=O (configuration not stated) | -0.4 | 19 | . | .
C[C@@H]1CN([C@@H](C)CO)C(=O)c2cc(NC(=O)CCC(F)(F)F)ccc2O[C@@H]1CN(C)Cc1ccc(-c2ccccc2)cc1 | -1.7 | -3 | 0.29 | .
COc1ccc(N(C(C)C(=O)Nc2ccc(Cl)cc2C)S(C)(=O)=O)cc1 (configuration not stated) | -1.4 | 10 | . | .
CC(C)c1ccc2c(c1)CCC1C(C)(C(N)=O)CCCC21C (configuration not stated) | -4.1 | -19 | -0.085 | -37
C[C@@H]1CCCCO[C@@H](CN(C)C(=O)CCC(F)(F)F)[C@@H](C)CN([C@H](C)CO)C(=O)c2cc(NS(=O)(=O)c3ccc(F)cc3)ccc2O1 | -1.1 | 9 | 0.35 | -3
COc1ccc(S(=O)(=O)Nc2ccc3c(c2)CC(=O)N([C@H](C)CO)C[C@@H](C)[C@@H](CN(C)S(=O)(=O)c2cn(C)cn2)O3)cc1 | 2.3 | -11 | -0.5 | -12
C[C@H]1CN([C@@H](C)CO)C(=O)Cc2cc(NS(=O)(=O)c3ccc(F)cc3)ccc2O[C@@H]1CN(C)S(C)(=O)=O | . | 4 | 0.19 | .
CC12CCC(C(=O)N3NC(=O)[C@@H](c4ccccc4)[C@@H]3c3ccccc3)(OC1=O)C2(C)C (some centres not stated) | -1.5 | -2 | -0.019 | -7
Cc1ccccc1OCc1nnc(SCC(N)=O)n1C | -0.8 | 7 | -0.26 | -13
Cc1ccc(S(=O)(=O)NC(C)C(=O)Nc2cc([N+](=O)[O-])ccc2C)cc1 (configuration not stated) | -0.9 | 10 | . | .
CC1CCCCN1CCCNC(=O)Nc1ccc(Cl)cc1 (configuration not stated) | 1.3 | -18 | -0.3 | 51
C[C@H](CO)N1C[C@H](C)[C@@H](CN(C)C(=O)Nc2ccccc2)Oc2c(NS(=O)(=O)c3ccccc3)cccc2C1=O | -0.4 | -4 | 0.15 | -29
Cc1ccc(S(=O)(=O)N(C)C[C@H]2Oc3ccc(NC(=O)Cc4cn(C)c5ccccc45)cc3CC(=O)N([C@@H](C)CO)C[C@@H]2C)cc1 | . | 28 | -0.43 | 15
COc1ccc(NC(=O)Nc2ccc3c(c2)CC(=O)N([C@H](C)CO)C[C@@H](C)[C@@H](CN(C)C(=O)Nc2ccc(OC)cc2)O3)cc1 | 0.8 | 35 | 0.0072 | -19
Cc1nnc(SCC(=O)Nc2ccc(C)c(Cl)c2)s1 | 2.3 | 13 | . | .
C[C@H]1CN([C@@H](C)CO)C(=O)Cc2cc(NC(=O)Cc3cn(C)c4ccccc34)ccc2O[C@H]1CN(C)CC1CC1 | . | -1 | -0.079 | -24
CC(C)NC(=O)N(C)C[C@@H]1Oc2ccc(NC(=O)Nc3cccc4ccccc34)cc2CC(=O)N([C@H](C)CO)C[C@@H]1C | . | -6 | 0.049 | -3
Cc1ccc2c(c1)C(C)(C)C1(C)N(Cc3ccccc3)C(=O)CN21 (configuration not stated) | 1.6 | 4 | -0.5 | .
C[C@@H]1CN([C@H](C)CO)C(=O)Cc2cc(NC(=O)CCC(F)(F)F)ccc2O[C@H]1CN(C)Cc1ccc(-c2ccccc2)cc1 | -1.9 | 7 | -0.14 | 1
O=C(COc1ccc([N+](=O)[O-])cc1)Nc1cccc2cccnc12 | -0.1 | -10 | . | .
CCC(C)Nc1nc(OC)nc(Oc2ccc(=O)[nH]n2)n1 (configuration not stated) | 1.8 | -16 | . | .
COc1ccc(NC(=O)Nc2cccc3c2O[C@@H](CN(C)CC2CC2)[C@H](C)CN([C@@H](C)CO)C3=O)cc1 | 1.5 | 3 | -0.4 | 19
CC(=O)Nc1ccc(S(=O)(=O)N2CCCCC2C)cc1 (configuration not stated) | 1.0 | 5 | 0.31 | -2
C[C@H]1CN([C@@H](C)CO)C(=O)Cc2cc(NC(=O)C3CC3)ccc2O[C@H]1CN(C)Cc1ccc(C(F)(F)F)cc1 | -1.9 | -15 | 0.33 | 16
COc1ccc(NC(=O)N(C)C[C@@H]2OCCCC[C@@H](C)Oc3ccc(NS(=O)(=O)c4cccs4)cc3C(=O)N([C@H](C)CO)C[C@@H]2C)cc1 | . | -9 | 0.23 | -26
COc1cccc(NC(=O)CCc2nc(-c3ccccc3Cl)no2)c1 | -0.8 | -18 | . | .
O=C(CN1CCCCC1)Nc1ccc(NC(=O)CN2CCCCC2)cc1 | 1.0 | -30 | . | .
CC/C=C\C=C\C(O)C/C=C\CCCCCCCC(=O)O (configuration not stated) | . | . | -0.33 | -15
O=C(NC(N1CCCC1=O)(C(F)(F)F)C(F)(F)F)c1cccnc1 | -1.1 | 0 | -0.28 | 7
COc1ccc(S(=O)(=O)Nc2ccc3c(c2)C(=O)N([C@@H](C)CO)C[C@H](C)[C@H](CN(C)CC2CC2)O3)cc1 | 3.0 | 4 | -0.22 | -26
Cc1cc(Cl)c(S(=O)(=O)Nc2cccnc2)cc1OCC(N)=O | 1.0 | -10 | . | .
C[C@H](CO)N1C[C@H](C)[C@H](CN(C)CC2CCCCC2)Oc2ccc(NS(C)(=O)=O)cc2C1=O | 4.2 | -14 | -0.65 | .
C[C@H](CO)N1C[C@H](C)[C@H](CN(C)C(=O)Nc2cccc3ccccc23)Oc2c(NS(=O)(=O)c3ccc(Cl)cc3)cccc2C1=O | 1.1 | 8 | -0.9 | -25
C[C@@H]1CN([C@@H](C)CO)C(=O)c2cccc(NS(=O)(=O)c3ccc(F)cc3)c2O[C@H]1CN(C)C(=O)Nc1ccc(F)cc1 | . | -8 | -0.19 | 15
Cc1ccc(S(=O)(=O)N(C)C[C@@H]2Oc3ccc(NC(=O)CCC(F)(F)F)cc3C(=O)N([C@H](C)CO)C[C@@H]2C)cc1 | . | 17 | -0.11 | .
C[C@H](CO)N1C[C@H](C)[C@H](CN(C)S(C)(=O)=O)Oc2ccc(NC(=O)c3ccncc3)cc2CC1=O | 0.0 | -3 | -0.25 | 3
C[C@H](CO)N1C[C@H](C)[C@H](CN(C)S(=O)(=O)c2ccc(F)cc2)Oc2ccc(NC(=O)Nc3cccc4ccccc34)cc2C1=O | -1.3 | -4 | -0.023 | .
C[C@@H]1CN([C@H](C)CO)C(=O)c2cc(NC(=O)C3CC3)ccc2O[C@H]1CN(C)Cc1ccc(C(=O)Nc2ccccc2N)cc1 | -1.4 | 0 | 0.061 | .
CC(C)NC(=O)Nc1ccc2c(c1)C(=O)N([C@@H](C)CO)C[C@H](C)[C@@H](CN(C)Cc1ccc3c(c1)OCO3)O2 | 7.1 | 8 | 0.088 | .

Part of the list above with just MITF inh and Shh pathway inh.
Compound,MITF inh,Shh pathway inh
COc1ccc(S(=O)(=O)Nc2ccc3c(c2)C(=O)N([C@@H](C)CO)C[C@H](C)[C@H](CN(C)CC2CC2)O3)cc1,4,-26
C[C@H](CO)N1C[C@H](C)[C@H](CN(C)C(=O)Nc2cccc3ccccc23)Oc2c(NS(=O)(=O)c3ccc(Cl)cc3)cccc2C1=O,8,-25
COc1ccc(S(=O)(=O)Nc2ccc3c(c2)CC(=O)N([C@H](C)CO)C[C@@H](C)[C@@H](CN(C)S(=O)(=O)c2cn(C)cn2)O3)cc1,-11,-12

Remaining list, next part:
mol | PD-1 reverse act | MITF inh | YB-1 expression | Shh pathway inh
CC1CCC2C(C(=O)O)=COC(O[C@@H]3O[C@H](CO)[C@@H](O)[C@H](O)[C@H]3O)C12 (some centres not stated) | . | . | 0.34 | 15
C[C@@H]1CN([C@@H](C)CO)C(=O)c2cc(NC(=O)NC3CCCCC3)ccc2O[C@@H]1CN(C)CC1CCCCC1 | . | -5 | -0.32 | .
O=C1CCCN1CCCNc1ncnc2c1cnn2-c1ccc(Cl)cc1 | 0.7 | 0 | . | .
Cc1noc(C)c1NC(=O)Nc1cccc2c1O[C@H](CN(C)S(=O)(=O)c1cccs1)[C@@H](C)CN([C@H](C)CO)C2=O | 1.6 | 7 | 0.17 | -6
C[C@H]1CN([C@@H](C)CO)C(=O)c2cccc(NC(=O)c3ccncc3)c2O[C@H]1CN(C)Cc1ccc(C(F)(F)F)cc1 | -1.7 | -8 | 0.36 | -8
C[C@H](CO)N1C[C@H](C)[C@H](CN(C)C(=O)NC2CCCCC2)Oc2c(NC(=O)Nc3ccc(F)cc3)cccc2C1=O | . | 20 | 0.19 | -35
O=C(c1ccc(O)cc1)N1Cc2ccccc2NC1=S | 2.1 | -99 | -0.051 | -73
COc1ccc(C)cc1S(=O)(=O)N(C)CC(=O)Nc1cccc(SC)c1 | 1.4 | 9 | . | .
COc1cc(C)c(S(=O)(=O)NCCc2c(C)[nH]c3ccccc23)cc1C | -2.4 | 29 | . | .
COc1ccc(OC)c(S(=O)(=O)N(C)c2ccccc2C(=O)O)c1 | -0.5 | -7 | . | .
Cc1ccc(S(=O)(=O)N(C)C[C@H]2Oc3ccc(NC(=O)Nc4ccc5c(c4)OCO5)cc3CC(=O)N([C@H](C)CO)C[C@H]2C)cc1 | -3.0 | 31 | 0.46 | -9
COc1ccccc1NC(=O)CSCC#N | 2.6 | -8 | . | .
O=C1Nc2ccccc2-c2nc3ccccc3c(=O)n2-c2c(O)cccc21 | -0.4 | -2 | 2.7 | -21
COc1ccc(S(=O)(=O)N(C)C[C@@H]2Oc3ccc(NC(=O)Cc4cn(C)c5ccccc45)cc3C(=O)N([C@@H](C)CO)C[C@@H]2C)cc1 | -1.0 | 28 | -0.22 | .
Cc1nc(-c2ccccc2)nc(SCC(=O)O)c1Cc1ccccc1 | -0.6 | 23 | . | .
O=C(c1ccc(Cl)cc1)n1c(=O)oc2cc(Cl)ccc21 | -0.6 | -11 | 0.2 | .
C[C@@H]1CN([C@@H](C)CO)C(=O)Cc2cc(NC(=O)NC3CCCCC3)ccc2O[C@@H]1CN(C)Cc1ccncc1 | -0.6 | -7 | -0.36 | -22
COc1ccc(CN(C)C[C@H]2Oc3c(NC(=O)c4nc5ccccc5s4)cccc3C(=O)N([C@H](C)CO)C[C@@H]2C)cc1 | -2.0 | 1 | 5e-05 | 4
COc1ccc(CN(C)C[C@H]2Oc3ccc(NC(=O)Cc4ccccc4)cc3C(=O)N([C@@H](C)CO)C[C@@H]2C)cc1 | -0.9 | 3 | 0.28 | 3
C[C@H](CO)N1C[C@H](C)[C@H](CN(C)Cc2ccc(-c3ccccc3)cc2)Oc2c(NC(=O)c3ccncc3)cccc2C1=O | . | 6 | -0.22 | 36
COc1cc(O)c2c(=O)cc(-c3cc(OC)c(OC)c(O)c3OC)oc2c1 | -0.3 | -58 | -0.64 | -3
COc1ccc(NC(=O)Nc2ccc3c(c2)CC(=O)N([C@H](C)CO)C[C@@H](C)[C@@H](CN(C)C)O3)cc1 | 1.3 | -5 | 1.2 | -16
CNC[C@@H]1Oc2ccc(NC(=O)Nc3ccccc3)cc2CC(=O)N([C@@H](C)CO)C[C@@H]1C | 0.9 | -15 | -0.17 | -19
CC1(C)O[C@H]2CC(=O)OC[C@@]23[C@H]1CC(=O)[C@@]1(C)C2=CC(=O)O[C@@H](c4ccoc4)[C@]2(C)CC[C@@H]13 | -1.4 | 7 | 0.65 | -17
C[C@@H]1CN([C@@H](C)CO)C(=O)c2cccc(NS(C)(=O)=O)c2O[C@@H]1CN(C)S(=O)(=O)c1ccccc1 | -0.5 | -4 | -0.39 | -12
COc1ccc(NC(=O)N(C)C[C@@H]2Oc3ccc(NC(=O)Nc4cccc5ccccc45)cc3C(=O)N([C@H](C)CO)C[C@H]2C)cc1 | . | 11 | -0.04 | -16
C[C@@H]1CN([C@H](C)CO)C(=O)c2cc(N(C)C)ccc2O[C@H]1CN(C)C(=O)Nc1ccccc1 | 1.7 | -2 | -0.31 | -3
COc1c(C)cc(S(=O)(=O)NCc2ccccn2)c(C)c1C | -2.1 | -11 | . | .
CN(C/C=C/c1ccccc1[N+](=O)[O-])CCc1ccccn1 | -0.1 | 7 | . | .
C[C@@H]1CN([C@H](C)CO)C(=O)Cc2cc(NC(=O)Nc3ccc(C(F)(F)F)cc3)ccc2O[C@@H]1CN(C)Cc1ccccc1 | -3.2 | 24 | 0.19 | 28
C[C@H](CO)N1C[C@H](C)[C@H](CN(C)C(=O)Nc2ccc3c(c2)OCO3)Oc2c(NC(=O)C3CC3)cccc2C1=O | -0.2 | -2 | 0.21 | -7
CC(C)NC(=O)Nc1ccc2c(c1)CC(=O)N([C@H](C)CO)C[C@H](C)[C@H](CN(C)Cc1ccc(Cl)c(Cl)c1)O2 | . | -13 | 0.58 | .
COc1ccc(S(=O)(=O)Nc2cccc3c2O[C@@H](CN(C)C)[C@@H](C)CN([C@@H](C)CO)C3=O)cc1 | . | -11 | 0.15 | 16
Cc1ccc(NC(=O)CSc2nnnn2C2CC3CCC2C3)cc1 (configuration not stated) | -1.4 | -29 | . | .
CCCOc1ccc(-c2nc(SCC(=O)O)n[nH]2)cc1 | 1.5 | 3 | . | .
Cc1ccc(S(=O)(=O)N(C)C[C@H]2Oc3ccc(NS(=O)(=O)c4ccc(F)cc4)cc3CC(=O)N([C@@H](C)CO)C[C@H]2C)cc1 | -2.2 | 6 | 0.16 | -3

Some of the compounds tested; the hit share may differ from the screen's.
